YopH PTP inh: YopH tyrosine phosphatase inhibitors, primary screen, biochemical, fluorescence Ex485/Em525 | inhibition, %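 (about 10 µM by stock and volumes)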 | YopH tyrosine phosphatase [Yersinia enterocolitica] | hit rate 0.16% among 140,000 | AID 898, 2007;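 active = inhibition of 50% or more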;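 also: controls were vehicle for no effect and minimum signal wells for full effect; inactives centre near -20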
Mtb growth: M. tuberculosis H37Rv growth inhibitors, H37Rv strain (AID 1626) | M. tuberculosis H37Rv growth inhibition; higher % means a stronger effect | inhibition, % at 10 µM, or IC50 in µM where a hit was titrated | hit rate 0.95% among 220,000;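 active = confirmed in a dose series; inconclusive = inhibition above 80% but not taken into the dose series; inactive = below 80% or under 30% at every dose of the series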;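 also: bacteria incubated seven days before Alamar blue readout; 0% = bacteria only wells and 100% = bacteria with antibiotic wells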
Mtb betalactam: beta-lactam sensitization of Mtb H37Rv, H37Rv | M. tuberculosis H37Rv growth with meropenem, percent inhibition; hits of this screen are not shown here | inhibition, % at 25 µM | hit rate 0.27% among 330,000 | AID 434955, 2010;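 active = about 74% or more and at least 40 points above the plate without the antibiotic, then above 30% in a dose series; inconclusive = first-round hits that could not be retested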;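 also: growth measured after seven days incubation then overnight dye step; 0% = bacteria only wells and 100% = bacteria with antibiotic; twin plates without the antibiotic show which effects depend on it; some results filed as inactive read as strong as hits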
RecA splice inh: Mtb RecA intein splicing inhibitors, primary screen, biochemical, fluorescence, HTS | hit rate 0.75% among 290,000 | AID 2221, 2009 | Protein RecA (Mycobacterium tuberculosis (strain ATCC 25618 / H37Rv)), P9WHJ3 | cell-free RecA intein splicing | inhibition, %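 (about 9 µM by stock and volumes)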; in the data active = inhibition above about 30%; inconclusive = no clear call, values can overlap the other calls;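 also: 0% = vehicle wells and 100% = reference inhibitor control wells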
Target sequence (P9WHJ3 whole entry, looked up, canonical isoform): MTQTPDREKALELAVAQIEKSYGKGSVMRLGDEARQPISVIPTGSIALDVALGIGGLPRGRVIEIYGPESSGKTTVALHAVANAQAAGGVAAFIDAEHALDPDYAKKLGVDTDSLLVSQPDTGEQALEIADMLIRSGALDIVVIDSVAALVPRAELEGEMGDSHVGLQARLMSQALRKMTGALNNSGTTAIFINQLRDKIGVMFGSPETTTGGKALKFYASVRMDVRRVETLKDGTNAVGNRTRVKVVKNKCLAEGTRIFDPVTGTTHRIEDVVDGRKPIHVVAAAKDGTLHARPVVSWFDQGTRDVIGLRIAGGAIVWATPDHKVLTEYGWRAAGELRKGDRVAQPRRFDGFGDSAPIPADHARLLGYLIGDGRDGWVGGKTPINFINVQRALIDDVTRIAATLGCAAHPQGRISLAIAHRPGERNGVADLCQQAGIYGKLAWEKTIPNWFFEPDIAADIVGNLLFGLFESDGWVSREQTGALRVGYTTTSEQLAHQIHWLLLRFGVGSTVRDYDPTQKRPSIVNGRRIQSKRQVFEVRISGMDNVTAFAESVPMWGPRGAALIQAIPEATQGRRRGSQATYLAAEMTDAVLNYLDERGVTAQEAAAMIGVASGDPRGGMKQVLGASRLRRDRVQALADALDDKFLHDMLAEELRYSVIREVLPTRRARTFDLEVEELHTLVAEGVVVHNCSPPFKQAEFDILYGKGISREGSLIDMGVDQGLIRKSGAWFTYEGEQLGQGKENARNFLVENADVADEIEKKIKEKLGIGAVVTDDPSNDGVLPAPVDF
Arbovirus anti: antivirals against arbovirus infection, primary screen, cell-based, full library, 10K replicate subset; arbovirus infection cell-based antiviral screen; inhibition, % at 10 µM; hit rate 0.37% among 200,000; AID 1251, 2008;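 active = inhibition from about 30%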;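 also: bluetongue infection of BSR cells; cell survival read as ATP light after 72 h; 0% = infected wells without compound and 100% = uninfected wells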
Arbovirus anti repeat: further read-out of Arbovirus anti, marked with its call; inhibition, %; measured here: 10K subset replicate screen; many hits read low in the repeat;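 first of two repeat runs on a subset; 0% = infected and 100% = uninfected wells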
Active calls of the source: *; ? = inconclusive; . = not tested or not shown.

SMILES	YopH PTP inh	Mtb growth	Mtb betalactam	RecA splice inh	Arbovirus anti	others
COC(=O)C(CC(C)C)N1CCC(=O)c2ccccc2S1(=O)=O (stereo not given)	.	-8.6%	-8.9	-0.2	.
CCc1ccc2[nH]c(=O)c(CN(CCCN3CCOCC3)C(=O)Nc3ccc(Cl)cc3)cc2c1	-2.4	9.8%	73.4	6.1	-0.7
O=S(=O)(c1ccc(Cl)cc1)N1CCCCC1c1cccnc1 (stereo not given)	.	-1.1%	6.9	5.9	21.9
COc1ccc(NC(C)c2ccccc2)cc1 (stereo not given)	.	7.5%	.	-2.2	-7.0
CCCc1c(C)c2cc(C)ccc2[nH]c1=O	-29.7	-15.5%	1.4	-0.5	12.6
Cc1ccc(NC(=O)C(=O)NCC2OCCc3ccccc32)cc1 (stereo not given)	.	-6.2%	-3.2	-1.3	-6.2
Cc1ccc2[nH]c(=O)c(CN(CCCN3CCOCC3)C(=O)NC3CCCCC3)cc2c1	-17.7	-6.5%	5.9	0.3	5.3
COc1ccc(NC(=O)N(CCc2ccccc2)Cc2cc3c(C)cc(C)cc3[nH]c2=O)cc1	-10.7	9.6%	7.8	0.6	10.1
CCOc1ccc(S(=O)(=O)Nc2nccs2)cc1	.	-5.2%	-7.3	-29.3	4.0
NC(=S)Nc1c(Cl)cccc1Cl	.	-0.8%	54.8	-1.2	.
CNc1nc(Cl)c(SC)c(NCc2cccc(OC)c2)n1	.	.	3.0	1.3	.
O=C(NC1CCCC1)c1c[nH]c2ccc(F)cc2c1=O	-4.1	-4.2%	-7.5	0.8	3.9
Cc1ccc(C)c(S(=O)(=O)NCc2ccc(C(=O)NCc3ccco3)cc2)c1	7.0	7.8%	12.1	0.3	-1.2
Cc1nn(Cc2ccccc2Cl)c(C)c1NC(=O)/C=C/c1cnn(C)c1	-22.1	-0.3%	-1.7	-3.0	2.5
O=C(c1cnc2n(c1=O)CCS2)N1CCCc2ccccc21	-5.1	-7.2%	-8.8	-0.4	5.7
NCCc1ccccn1	.	0.7%	-6.6	6.3	.
C=CCN1C(=NC(=O)CCC)SC2CS(=O)(=O)CC21 (stereo not given)	4.3	-3.0%	11.4	3.0	2.0
COc1cccc(C2C(C(=O)c3cc4cccc(OC)c4o3)=C(O)C(=O)N2c2cc(C)on2)c1OC (stereo not given)	-22.6	-9.6%	-1.9	3.5	9.2
CC(C)[C@H](NC(=O)[C@@H]1Cc2ccccc2CN1)C(=O)Nc1ccc2c(c1)OCCO2	.	.	2.0	2.1	.
Fc1ccc(-c2cc(C(F)(F)F)nc(-n3cc(Cl)cn3)n2)cc1	.	-1.2%	2.9	-0.9	4.1
CN=Cc1c(NC)nc2c(C)cccn2c1=O	-4.3	-6.6%	-13.7	-7.9	7.4
CSc1ccc(CN(C)C(=O)CN2C(=O)NC3(CCCC3)C2=O)cc1	.	.	-2.6	-0.9	.
CN(C)C(CNC(=O)CSc1nc2sc3c(c2c(=O)n1C)CCC3)c1ccccc1 (stereo not given)	.	.	0.6	-3.7	.
CC1CC(C)(C)NC(=S)N1CCCC(=O)N1CCN(c2ccc(F)cc2)CC1 (stereo not given)	-24.6	-3.0%	-3.0	-13.4	5.0
Cc1cccc(N)c1SC1CCCCC1O (stereo not given)	-24.7	3.4%	4.2	-0.7	-6.8

Further records follow.
SMILES	YopH PTP inh	Mtb growth	Mtb betalactam	RecA splice inh	Arbovirus anti	others
Cc1ccc(S(=O)(=O)C2(C(=O)Nc3ccc(C(C)C)cc3)CC2)cc1	.	7.4%	0.7	1.0	-5.1
COc1cc(NS(=O)(=O)c2ccc(NC(=S)NC(=O)c3ccc(F)c(F)c3)cc2)nc(OC)n1	.	.	0.0	3.3	.
CCOC(=O)c1cnc2cc(C)ccn2c1=O	-24.3	-6.2%	1.3	-2.0	-4.1
CC(C)OCCCNS(=O)(=O)c1ccc2c(c1)OCCO2	30.9	2.4%	-0.6	-0.9	-0.4
COc1cc(Cl)cc(/C=C/c2ccc3cccc(O)c3n2)c1OC	.	.	4.3	1.3	.
Cc1cccc(N(C)C(=O)c2coc(=O)c3ccccc23)c1	-20.2	-2.6%	8.1	2.2	8.3
Nc1cc(=O)[nH]c(SCCSc2ccccc2F)n1	.	.	-0.8	-0.8	.
Nn1c(SCC(=O)Nc2nnc(-c3ccccc3)o2)nnc1C1CC1	.	.	-11.8	-6.0	.
O=C(c1ccc(NC2=NC3CS(=O)(=O)CC3S2)cc1)N1CCN(c2ccc([N+](=O)[O-])cc2)CC1 (stereo not given)	.	.	-5.5	0.2	.
COC(=O)C1=C(C)N=C2SC(C#N)=C(N)N2C1c1cccc(OC)c1 (stereo not given)	-14.2	-0.3%	-1.7	-35.1	7.8
Cc1ccc(C(C[N+](=O)[O-])c2c(C)cc3ccccn23)cc1 (stereo not given)	-23.1	4.4%	68.7	2.0	0.0
CC(C(O)C12CC3CC(CC(C3)C1)C2)N1CCCCC1 (stereo not given)	.	1.1%	4.5	2.8	-8.8
COCCC(=O)N(Cc1ccc2c(c1)OCO2)C(C(=O)NC1CCCCC1)c1ccncc1 (stereo not given)	-23.2	-11.9%	3.1	-5.0	-1.1
CCn1ncc(C2=NOC(C(=O)NCc3ccc(Cl)cc3)C2)c1C (stereo not given)	-25.2	.	-8.8	3.1	-3.9
O=c1cc(O)n(C2CCCCCC2)c(=O)[nH]1	.	.	-0.7	3.4	.
O=C(Nc1ccc(S(=O)(=O)NC2=NCCCCC2)cc1)c1ccco1	.	4.7%	-5.8	1.1	9.8
CCOC(=O)c1sc(NC(=O)CSc2nc3c(cc2C#N)CCCCCC3)c(C#N)c1C	-27.4	4.9%	?	-4.0	-24.2
O=C(O)COn1c(-c2ccc(Cl)cc2)nc2ccc(Cl)cc21	.	8.7%	24.0	1.2	0.1
Cc1csc(NC(=O)CSc2nnc(-c3ccoc3C)n2C(C)c2ccccc2)n1 (stereo not given)	.	.	0.4	4.1	.
CCOC(=O)N1CCN(C(=S)NC(=O)c2cncc(Br)c2)CC1	13.1	6.2%	65.8	1.1	7.5
O=C(C1=C[C@H](c2ccc(Br)cc2)C[C@H](OCc2ccc(CO)cc2)O1)N1CCOCC1	.	3.0%	1.0	1.3	2.9
FC(F)(F)c1cccc(NC(=S)NNC(=S)Nc2cccc(C(F)(F)F)c2)c1	.	?	99.5	8.9	.
CN(C)Cc1ccccc1COc1ccccc1	-15.3	-0.5%	3.9	0.2	4.2
CC(C)(CC(=O)O)CC(=O)NCc1c(Cl)cccc1Sc1ccc(Cl)cc1	.	-0.6%	-0.5	3.6	.
O=C(NCCc1cccnc1)c1cc(COc2ccc(F)cc2F)on1	.	.	1.9	1.1	.

Other records.
SMILES	YopH PTP inh	Mtb growth	Mtb betalactam	RecA splice inh	Arbovirus anti	others
COc1cc(C(=O)O/N=C(\N)c2ccccn2)cc(OC)c1OC	.	-5.9%	30.5	4.6	.
COc1cccc(OCCn2c(C)c(/C=N/n3cnnc3)c3ccccc32)c1	-25.8	-5.5%	-2.8	9.9	-3.4	Arbovirus anti repeat=3.4
CCCC(=O)Nc1ccc2nc(SCC(=O)N3CCCC3)sc2c1	.	-1.6%	-9.3	2.2	0.3
O=c1cc(NCc2ccccc2)nc2n1CCCS2	-19.8	6.5%	4.6	4.7	1.7
O=[N+]([O-])c1cccc(-c2ccc(SCc3ccccn3)nn2)c1	.	5.5%	-11.1	-0.1	-5.2
CC(NC(=O)COc1cc(=O)n(C)c2ccccc12)c1ccc2c(c1)OCCO2 (stereo not given)	-10.6	-2.2%	-5.1	-1.9	-4.3
Cc1ccc(S(=O)(=O)N2CCCC(C)C2)cc1 (stereo not given)	.	.	0.6	1.0	.
Fc1ccc(-c2ccnc3nc(N4CCOCC4)nn23)cc1	8.6	0.8%	15.7	-10.5	-0.9
CCCC(=O)N1CCN(c2nc3c(OC)ccc(Cl)c3s2)CC1	.	.	-2.5	1.3	.
Cc1cnc(CNC(=O)C2CCC(=O)N(CCc3cccc(F)c3)C2)[nH]1 (stereo not given)	.	.	0.6	0.7	.
O=[N+]([O-])c1cc(S(=O)(=O)N2CCCCCC2)ccc1F	-8.1	7.3%	54.1	.	-35.1
O=C(Nc1ccnn1C1CCN(C2CCCC2)CC1)c1ccccc1Cl	.	.	3.9	-1.5	.
Cc1ccc(-n2c(O)c(C=N)c(=O)n(-c3ccc(C)cc3)c2=O)cc1	.	-8.3%	0.1	8.3	.
O=c1[nH]oc(O)c1-c1ncc(C(F)(F)F)cc1Cl	.	4.1%	5.4	-1.3	-1.1
CCn1c2ccc(C)cc2c2nnc(SCCN3CCOCC3)nc21	.	.	-3.8	-1.5	-11.5
N=C1/C(=C/c2ccc(OCc3ccccc3F)cc2)C(=O)N=C2SC(CC(=O)N3CCOCC3)=NN12	.	.	9.5	-0.1	.
COC(=O)CCCC(=O)NC(C)c1cnn(-c2ccccc2C)c1C (stereo not given)	.	-6.9%	-2.8	-0.2	2.6
COC(=O)CSc1nc2c(c(C3CC=CCC3)c1C#N)CCC2 (stereo not given)	38.9	34.1%	99.7	19.3	-15.3
CCOC(=O)CNC(=O)COc1coc(CN2CCN(c3ccccc3F)CC2)cc1=O	.	.	8.4	-2.4	.
CC(C)n1c(=O)[nH]c2ccccc21	-30.1	3.3%	4.1	-0.6	0.3	Arbovirus anti repeat=-3.4
CC1CCCCC1NC(=O)C1CCC(CNS(=O)(=O)c2ccc(F)cc2)CC1 (stereo not given)	.	.	3.0	-0.9	.
C=CC(=O)N1c2ccccc2Sc2ccc(NC(=O)OCC)cc21	-23.9	-3.3%	-4.7	-2.4	10.3
CCn1c(SCC(=O)N2CCCCCC2)nc2c([nH]c3ccccc32)c1=O	.	.	-11.5	-0.3	.
COc1ccc(OC)c(NS(=O)(=O)c2ccc(NC(C)=O)cc2)c1	-1.9	-2.9%	31.3	1.0	-4.3
CCC(=O)Nc1cccc(NC(=S)NC(=O)c2ccccc2Cl)c1	-38.0	1.3%	-9.9	0.5	0.7

(next part)
SMILES	YopH PTP inh	Mtb growth	Mtb betalactam	RecA splice inh	Arbovirus anti	others
Cc1ccc(-n2ncc3c2CC(C)(C)CC3NC(=O)CCCN2CCCC2=O)cc1 (stereo not given)	.	.	-1.7	-0.9	.
COC(=O)CC1COc2ccccc2N1C(=O)c1cccc(C(F)(F)F)c1 (stereo not given)	.	10.0%	-0.1	-2.8	-3.2
COc1cccc(C(=O)NCC(=O)NCc2cc(=O)n(C)c(=O)n2C)c1OC	.	.	-6.4	-1.0	.
Cc1c(N2C(=O)/C(=C\c3ccc(N(C)C)cc3)N(C)C2=S)c(=O)n(-c2ccccc2)n1C	-9.9	4.6%	10.9	.	-1.3
CCn1c(SCC(=O)N2CCOCC2)nc2c([nH]c3ccccc32)c1=O	.	.	-4.5	-0.9	.
O=[N+]([O-])c1cc(CN2CCCC2)c2cccnc2c1O	16.0	-5.6%	-0.6	.	-7.8
COc1cc(C2C(C#N)=C(C)NC(C)=C2C#N)cc(OC)c1OC	-17.2	-5.8%	1.5	.	4.6
COc1ccccc1CCN=C(N)NS(=O)(=O)c1cccs1	.	4.7%	-8.9	3.5	4.3
COc1ccc([N+](=O)[O-])cc1N(CC(=O)NCCSc1ccc(C)cc1)S(C)(=O)=O	.	-1.2%	8.9	7.6	2.8
Cc1ccc(-c2noc(CNC(=O)c3ccoc3C)n2)cc1	.	.	2.9	-1.7	.

A portion of the library. The share of hits here may be higher or lower than overall.
